High-throughput results: PubChem BioAssay, Southern Research Specialized Biocontainment Screening Center
Mtb bLac sens: beta-lactam sensitization of Mtb H37Rv, H37Rv | M. tuberculosis H37Rv growth with meropenem, percent inhibition; hits of this screen are not shown here | inhibition, % at 25 µM | 330,000 compounds, 0.27% hits;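 active = about 74% or more and at least 40 points above the plate without the antibiotic, then above 30% in a dose series; inconclusive = first-round hits that could not be retested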;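 also: growth measured after seven days incubation then overnight dye step; 0% = bacteria only wells and 100% = bacteria with antibiotic; twin plates without the antibiotic show which effects depend on it; some results filed as inactive read as strong as hits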
* hit, by the source's call; ? = inconclusive.

SMILES | Mtb bLac sens
Nc1ccn([C@@H]2O[C@H](COS(=O)(=O)O)[C@@H](O)[C@H]2O)c(=O)n1 | -2.5
Nc1nnc(SCC(=O)NCCNC(=O)CSc2nnc(N)s2)s1 | -6.5
O=C(NCCN1C(=O)S/C(=C/c2ccccc2)C1=O)C1CC(=O)N(Cc2ccccc2)C1 (centres undefined) | -8.8
COc1ccc2c(CC(=O)NNC(=O)c3ccccc3F)coc2c1 | -6.0
N#Cc1c2ccc([N+](=O)[O-])cc2[n+]([O-])n1-c1ccccc1 | 100.2
CCCc1ccc(-c2csc(NC(=O)C3=COCCO3)n2)cc1 | 2.0
O=C(Nc1cccc(Cl)c1)c1nc[nH]c1C(=O)NCc1ccccc1 | ?
COc1ccc(C2=NOC(Cn3nc(-c4ccccc4)cc3C(=O)O)C2)cc1 (centres undefined) | 1.1
COc1ccc(OCc2cc(C(=O)N3CCCCCC3)no2)c(Cl)c1 | ?
O=C(COc1ccccc1)Nc1cc(S(=O)(=O)N2CCOCC2)ccc1N1CCCC1 | 0.9
CCc1ccc(C(=O)NNC(=O)C2CC(=O)N(c3ccc4c(c3)OCCO4)C2)cc1 (centres undefined) | -8.2
CC(C)(C)c1ccc(C(=O)N2CCN(S(=O)(=O)c3ccc(Br)s3)CC2)cc1 | -4.8
COc1ccccc1N(CC(=O)N(C)Cc1ccccc1)S(=O)(=O)c1cccs1 | -2.3
CCCCC(CC)CN=C(N)NC(N)=NCCCCCCN=C(N)NC(N)=NCC(CC)CCCC (centres undefined) | 100.1
CCOc1ccc(S(=O)(=O)NC2=NCCCCC2)cc1 | 4.6
COc1ccccc1CNC(=O)CN1NS(=O)(=O)c2ccccc2C1=O | -4.2
O=C(COc1ccccc1Br)Nc1ccc(S(=O)(=O)N2CCCC2)cc1 | 4.9
C[C@H](CO)N1C[C@H](C)[C@@H](CN(C)Cc2ccc(C(=O)O)cc2)Oc2ccc(NS(=O)(=O)c3cn(C)cn3)cc2C1=O | -11.5
O=C(CN1C(=O)NC2(CCCC2)C1=O)Nc1ccc(Cl)cc1C(F)(F)F | -10.1
NC(=O)Nc1ccc(C(=O)N2CCN(S(=O)(=O)Cc3ccccc3)CC2)cc1 | -6.2
CCOC(=O)[C@H]1[C@H]2COc3ccc(C)cc3[C@@H]2N2C(=O)CN(Cc3ccc(OC)cc3)C(=O)[C@@]12C | -0.1
Cn1c(-c2ccccc2)cc2onc(-c3ccccc3)c2c1=O | 3.4
O=c1cc(-c2ccsc2)oc2ccccc12 | 0.7
COC(=O)C1=C(c2ccc(C(C)=O)cc2)C[C@@H]2CC[C@H]1N2C(=O)N1CCC(O)CC1 | -4.7
COc1ccc(C(=O)N2CCN(C(=O)C3CCCO3)CC2)cc1[N+](=O)[O-] (centres undefined) | 1.3
Cc1cc(Br)c(NC(=O)COC(=O)CC2CC3CCC2C3)c(Br)c1 (centres undefined) | 14.5
COc1cccc(NC(=O)CN(C)C(=O)Cc2cccc3ccccc23)c1 | -1.7
CC(OC(=O)CN1C(=O)c2ccccc2C1=O)C(=O)c1ccccc1 (centres undefined) | -1.4
Cc1ccc(-n2c(SCC(=O)N3CCN(c4ccccn4)CC3)nnc2N2CCCC2)cc1 | 1.9
O=C(CN1C(=O)NC2(CCCCC2)C1=O)Nc1ccc2[nH]c(=O)[nH]c2c1 | -10.0
O=C(CSc1nnc(-c2ccccc2F)o1)N1CCNC1=O | -14.5
Cc1ccc(S(=O)(=O)N(C)CC(=O)NNC(=O)Cc2cccc(F)c2)cc1 | -7.6
O=C(CSc1nnc(Nc2ccccc2F)s1)NC1CC1 | 1.3
Cn1nnnc1SCC(=O)Nc1cc(S(=O)(=O)N2CCCCC2)ccc1Cl | 0.8
C#CCOCCOCCOCCNc1nc(N2CCOCC2)nc(N2CCN(C(=O)CCCCCCCCCCNC(=O)[C@@H](CCSC)n3cc(CCO)nn3)CC2)n1 | 98.4
Cc1cccc(OCCCC(=O)NNC(=O)c2ccccn2)c1 | 99.2
Cc1ccc(S(=O)(=O)N2CCN(C(=O)CSCc3ccc(C(C)C)cc3)CC2)cc1 | -4.8
O=C1C(Cl)=C(N2CCCC2)C(=O)N1c1ccc(F)cc1 | 13.5
CC(C)C[C@H]1CN=C(N(C)C)N1CC1CCCCCC1 | -3.0
CC(=O)NC(CC(=O)Nc1ccc(S(=O)(=O)N2CCOCC2)cc1)c1ccccc1 (centres undefined) | -3.3
O=C(NCCc1ccccc1)C(c1ccc(F)cc1)N(C(=O)c1csnn1)C1CC1 (centres undefined) | -10.6
O=C(COC(=O)/C=C/c1ccco1)NCc1ccc(Cl)cc1Cl | 5.6
CC(Oc1ccccc1)C(=O)OCC(=O)NC(=O)NC1CCCCC1 (centres undefined) | -7.1
CCOc1ccc(S(=O)(=O)NCc2cccnc2)cc1NC(=O)c1ccccc1F | 0.3
O=C(CCNC(=O)c1ccccc1)Nc1ccc(Cl)c(S(=O)(=O)N2CCCCC2)c1 | -0.6
O=C1NC2(CCCCCCC2)C(=O)N1Cc1ccc(F)cc1 | -3.7
N#Cc1c(-c2ccccc2)cc(-c2ccc3c(c2)OCO3)[nH]c1=O | -7.3
COc1ccc(C)cc1NC(=O)C(OC(=O)C1=NNC(=O)CC1)c1ccccc1 (centres undefined) | -0.3
COc1cc(NC(=O)COc2ccccc2)ccc1NC(=O)c1ccco1 | 9.7
C=CC[C@H](CC(=O)NCCO)C(=O)N[C@H](COC(=O)[C@@H](CC=C)CC(=O)OC(C)(C)C)Cc1ccccc1 | -9.4

Other entries follow.
SMILES | Mtb bLac sens
Cc1ccc(OC(C)C(=O)OCC(=O)Nc2sccc2C(N)=O)cc1 (centres undefined) | 0.4
CC(=O)c1ccc(OCC(=O)NC2CCCCCC2)cc1 | -5.4
Cc1ccccc1NC(=O)Cc1nc(COC(=O)C(NC(=O)c2ccccc2C)C(C)C)cs1 (centres undefined) | -6.2
C[N+](C)(C)CCOC(N)=O | -6.1
O=C(COc1cccnc1[N+](=O)[O-])Nc1cccc(Br)c1 | -0.7
CC[C@@H]1C/C=C\Cc2ccccc2[C@H](C(=O)C[C@@H](O)CC(C)=O)OC1=O | 11.5
CCOc1cc(N2CCOCC2)c(OCC)cc1NC(=O)COC(=O)c1ccc([N+](=O)[O-])o1 | 96.7
N#CCc1ccc(NC(=O)CSc2nnc(C3CC3)n2C2CC2)cc1 | 1.9
COc1cc(OC)c(OC)cc1CNC(=O)c1ccc(S(=O)(=O)N2CCCCC2)cc1 | -1.6
Cc1cc(C(=O)OCC(=O)Nc2cc(Cl)ccc2C)c(C)o1 | -2.0
CCC(C)c1ccccc1NC(=O)COc1ccc(-n2cnnn2)cc1 (centres undefined) | 0.5
Cc1c(Cc2ccccc2)c(=O)oc2cc(OCC(=O)N3CCC(C(N)=O)CC3)ccc12 | -9.5
Cc1ccc(NS(=O)(=O)c2ccc3c(c2)OCCCO3)cc1S(=O)(=O)N1CCOCC1 | -2.8
O=C(CN1C(=O)NC2(CCCCCC2)C1=O)N1CCN(c2ccc(F)cc2)CC1 | -2.0
O=C(CSc1nnc(-c2ccccc2)c(-c2ccccc2)n1)NCC1CCCO1 (centres undefined) | 1.8
Cc1ccc(S(=O)(=O)N2CC(C(=O)O)=CC[C@H]2c2ccc(Cl)cc2)cc1 | -8.3
CC(C)N(Cc1ccccc1)C(=O)CN1C(=O)NC2(CCCCCC2)C1=O | -5.9
CCOc1ccc(NC(=O)COC(=O)Cn2cnc3ccccc32)cc1 | -3.9
CN(Cc1ccccc1)C(=O)c1ccc(NC(=O)Cc2cccc(NC(=O)C3CCCN(C(=O)C4CCCCC4)C3)c2)cc1 (centres undefined) | 1.0
COc1ccc(NC(=O)CSc2nnc(NC(=O)C3CCC3)s2)cc1 | -3.0
Fc1ccccc1-c1cc2cc3c(cc2cn1)OCO3 | 67.8
CSCC[C@@H](C(=O)NCCCCCCCCCCC(=O)N1CCNCC1)n1cc(CCO)nn1 | 2.4
Cc1ccc(S(=O)(=O)N2CCN(Cc3cc(=O)n4ccccc4n3)CC2)c(C)c1 | -4.0
Cc1ccc(C)c(OCCC(=O)OCC(=O)NC(=O)NC2CCCCC2)c1 | 5.7
NC(=O)C1CCN(c2nc(-c3ccccc3N)cs2)CC1 | -1.3
C[C@H]1CN([C@@H](C)CO)C(=O)Cc2cc(NC(=O)CCC(F)(F)F)ccc2O[C@H]1CN(C)C(=O)Nc1ccc(F)cc1 | -1.6
COC(=O)C1=C(c2ccc(C(C)=O)cc2)C[C@@H]2CC[C@H]1N2C(=O)N1CCOCC1 | -2.4
Cc1ccc(NC(=O)C(c2ccccc2)N2CCN(C(=O)c3ccco3)CC2)cc1Cl (centres undefined) | -13.9
O=C(NC1CCCCC1)c1cccc2c1C(=O)c1ccc(-c3ccc(OC(F)(F)F)cc3)cc1S2(=O)=O | -2.5
Cc1cnc(C(=O)OCc2nc3ccccc3o2)cn1 | -0.3
O=C(CN1C(=O)C(=O)N(Cc2ccco2)C1=O)Nc1ccc(F)c(F)c1F | 2.0
COCCn1c(SCC(=O)NC2CCCCC2)nnc1-c1ccncc1 | -2.1
COc1cc(/C=N/NC(=O)C2CC(=O)N(c3ccc(C)cc3)C2)cc(OC)c1OC (centres undefined) | -5.2
C[C@@H]1CN([C@@H](C)CO)C(=O)c2cccc(NC(=O)Nc3ccc(F)cc3)c2O[C@@H]1CN(C)Cc1ccc(Oc2ccccc2)cc1 | 99.4
O=C(NC(=S)N1CCN(c2ccc(O)cc2)CC1)c1ccco1 | -1.1
CN(CC(=O)Nc1cccc2ccccc12)C(=O)c1ccc(NC(=O)CC#N)cc1 | -6.7
Cc1ccccc1-c1cc(C(=O)NCc2cccc(Br)c2)n(CC2CC(c3cccnc3)=NO2)n1 (centres undefined) | -8.2
O=C(COC(=O)COc1ccccc1)Nc1ccc(Br)cc1F | -4.0
Cc1ccc(S(=O)(=O)N2[C@@H](c3ccc(Br)cc3)C(C(=O)O)=CC[C@H]2c2cccs2)cc1 | 5.7
Cc1ccc(S(=O)(=O)N2[C@@H](c3ccc(Cl)cc3)C(C(=O)O)=CC[C@H]2c2ccc(Cl)cc2)cc1 | 0.2
CC(=O)c1ccc(NC(=O)/C(=C\c2ccc(F)cc2)NC(=O)c2ccco2)cc1 | 3.1
O=C(O)CCNS(=O)(=O)c1cccc2nsnc12 | 2.0
O=C(c1cccs1)N1CCN(c2cccc(Cl)c2)CC1 | -4.1
Cc1ccc(S(=O)(=O)N2[C@@H](c3ccccc3F)C(C(=O)O)=CC[C@H]2c2ccc3c(c2)OCO3)cc1 | 6.6
CC(NC(=O)CN(C)CC(=O)Nc1ccccc1Br)c1ccccc1 (centres undefined) | 1.3
COc1ccc(OCCC(=O)OCC(=O)NC2CCCCC2)cc1 | 3.0
O=C(NNC(=O)c1csc(N2CCOCC2)n1)c1ccc(=O)[nH]c1 | -0.6
O=C(OCC(=O)N1CCN(c2ccccc2)CC1)c1cc(Br)ccc1Cl | 88.8
COc1ccccc1N1CCN(/N=C/c2ccc(O)cc2O)CC1 | 4.8
CC(OC(=O)CCC(=O)c1ccc(Cl)s1)C(=O)NC1(C#N)CCCCC1 (centres undefined) | 8.9

Later entries
SMILES | Mtb bLac sens
CCOC(=O)[C@H]1[C@H]2COc3ccc(OC)cc3[C@@H]2N2C(=O)CN(Cc3ccc(OC)cc3)C(=O)[C@@]12C | -8.7
C=C(C)c1cc2c(ccc3ccc(=O)oc32)o1 | -10.9
C[C@H](NC(=O)c1ccco1)C(=O)Nc1nnc(SCc2ccccc2)s1 | 4.6
CC(=O)Nc1ccc(S(=O)(=O)N2CCNC(=O)C2)cc1 | 0.8
COc1cccc(C(=O)N2CCN(Cc3ccccc3Br)CC2)c1 | -1.3
O=C(NCc1ccncc1)c1ccc(NS(=O)(=O)c2ccc(F)cc2)cc1 | 0.9
CCc1ncc(CN2CCCC(C(=O)Nc3cccc(-c4ccc(F)cc4)c3)C2)cn1 (centres undefined) | 10.4
CCCn1ccnc1SCC(=O)Nc1c(C)n(C)n(-c2ccccc2)c1=O | -1.5
CN(C(=O)CSc1nc2ccccc2c(=O)n1-c1ccccc1F)C1CCS(=O)(=O)C1 (centres undefined) | -0.7
COc1cc(CCC(=O)OCC(=O)NCCc2ccc(S(N)(=O)=O)cc2)cc(OC)c1OC | 1.6

3 entries from above, with each value named:
> C=C(C)c1cc2c(ccc3ccc(=O)oc32)o1
  Mtb bLac sens: -10.9
> C[C@H](NC(=O)c1ccco1)C(=O)Nc1nnc(SCc2ccccc2)s1
  Mtb bLac sens: 4.6
> CC(=O)Nc1ccc(S(=O)(=O)N2CCNC(=O)C2)cc1
  Mtb bLac sens: 0.8

(continued)
SMILES | Mtb bLac sens
COC(=O)Nc1nc2ccc(SC(C)C)cc2[nH]1 | -0.4
N#Cc1cccc(S(=O)(=O)NNC(=O)C23CC4CC(CC(C4)C2)C3)c1 | 2.2
Cc1cc(C)c(C)c(S(=O)(=O)N(C)CCc2ccccn2)c1C | -9.8
COC(=O)C1CCN(C(=O)c2cc(S(=O)(=O)N3CCCCC3)ccc2Cl)CC1 | -13.1
C[C@@]12C(=O)Nc3ccc(Br)cc3C(=O)N1[C@H]1c3ccccc3OC[C@@H]1[C@@H]2c1ccccc1 | 83.7
Cc1ccccc1C(=O)O | 1.4
COc1cc(CCC(=O)Nc2ccc(C)c(S(=O)(=O)N3CCCCCC3)c2)cc(OC)c1OC | -3.1
O=C(NCCCN1CCOCC1)c1cc(-c2ccc(F)cc2)nc2ccccc12 | 4.5
O=C(c1ccc(F)cc1)c1ccc(OCC(=O)N2CCOCC2)cc1 | -4.3
COC(=O)c1ccc(CSc2ccc3nnc(-c4ccc(OC)c(OC)c4)n3n2)o1 | -6.1
O=C(CCc1ccc(S(=O)(=O)N2CCOCC2)cc1)Nc1ccc(F)c(F)c1F | 0.7
Cc1ccccc1N1CCN(Cc2ccc([N+](=O)[O-])o2)CC1 | 99.6

Not all compounds are listed. The share of hits here may be higher or lower than overall.
